HNF4A DNA FP – change in binding of human HNF4A to DNA, primary screen, biochemical, fluorescence polarization, FITC-DNA | Hepatocyte nuclear factor 4-alpha (Homo sapiens), P41235 | 1 h | activity change, % at 10 µM | actives 0.3% (n = 360,000); in the data active means activity change above about 30%, passing the limit was not always enough;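 further: controls were the assay level and a saturating level of protein; the project sought stronger binding though the title names inhibitors; some compounds called inactive have numbers as strong as hits; positive values seem to mean higher polarization but the record does not say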
Target sequence (P41235 whole entry, looked up): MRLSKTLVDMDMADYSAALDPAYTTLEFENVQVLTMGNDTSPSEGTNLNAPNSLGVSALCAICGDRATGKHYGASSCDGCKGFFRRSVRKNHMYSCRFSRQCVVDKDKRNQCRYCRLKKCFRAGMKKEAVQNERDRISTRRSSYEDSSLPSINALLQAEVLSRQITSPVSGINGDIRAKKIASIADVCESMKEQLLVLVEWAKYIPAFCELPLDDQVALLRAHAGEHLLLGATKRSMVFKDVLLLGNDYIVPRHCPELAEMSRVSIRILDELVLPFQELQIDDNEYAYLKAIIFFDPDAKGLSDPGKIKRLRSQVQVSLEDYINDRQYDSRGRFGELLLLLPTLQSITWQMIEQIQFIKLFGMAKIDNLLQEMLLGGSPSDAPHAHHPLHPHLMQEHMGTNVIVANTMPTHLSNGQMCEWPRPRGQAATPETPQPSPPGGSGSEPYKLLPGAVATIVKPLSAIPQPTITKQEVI
Active calls of the source: *. These rows are one share of the data; rates above refer to the full screens.

SMILES	HNF4A DNA FP
CCCC(=O)N1CCC1(C)C(=O)Nc1ccc2nccnc2c1 (stereo unspecified)	9.2
CCC(CC)CN1CCC(CN2C(=O)C(=O)NC[C@@H]2CC(C)C)CC1	3.5
COc1ccc(C(=O)CSC(=S)N2CCCCC2)cc1	4.6
CN1OC[C@@H]2CN3C(=O)N(c4cccc5ccccc45)c4ccccc4[C@@H]3C[C@@H]21	5.1
COc1cccc(C(=O)N2CCN(Cc3nc(-c4ccoc4)oc3C)CC2)c1	2.3
Cc1cc(C)cc(-n2c3ccc(NC(=O)Cc4cccc5ccccc45)cc3c(=O)n2C)c1	2.9
CC(C)C[C@H]1CN([C@@H](CC(C)C)CN2CCC[C@H]2CN2C(=O)C(=O)NC[C@@H]2Cc2ccc(O)cc2)C(=O)C(=O)N1CC1CCCCC1	1.8
C=C(C)C(=O)Oc1ccc(N=Nc2ccc(C)cc2)ccc1=O	-55
CC(=O)Nc1cncc(-c2cccc(C(=O)N3CCOCC3)c2)n1	-2.0
Cc1c(COc2ccc3ccccc3c2)nnn1CC(=O)NS(=O)(=O)c1ccccc1C(F)(F)F	-3.7
CCOC(=O)C1CCCN(C(=O)c2ccc(N(C)C)cc2)CC1 (stereo unspecified)	-0.5
OC(c1ccc(F)cc1)c1nc(-c2cc3ccccc3o2)cs1 (stereo unspecified)	0.3
O=S1(=O)CC(N2CCN(CCO)CC2)CN1C1CCCCC1 (stereo unspecified)	2.5
CCCCC[C@H](C)N1C[C@@H](COCc2ccccc2)Oc2cc(N3CC[C@@H](N(C)C)C3)ccc2S1(=O)=O	2.2
CC(=O)c1cccc(-c2ccnc3c2CC(C(=O)Nc2ccc(F)c(Cl)c2)O3)c1 (stereo unspecified)	1.0
Cc1cccc(C(=O)O)c1O	-4.3
CC(C)(C)c1ccc(C(=O)N2CCC(=O)N([C@H](COCc3ccccc3)Cc3ccccc3)CC2)cc1	0.0
COc1cccc(-c2cc(CNC(=O)[C@H]3O[C@@H](n4ccc(=O)[nH]c4=O)[C@H](O)[C@@H]3O)no2)c1	-1.6
O=C(NCC(F)(F)F)c1cc2c(c(-c3cccc(-c4ccccc4F)c3)n1)[C@H](CCO)N(C(=O)CC1CC1)C2	2.3
COC(=O)[C@]12CCCCC=C1N(Cc1cccc3ccccc13)C(=O)[C@H](CC(=O)NCc1ccc(OC)c(OC)c1)C2	-0.5

Part of the list above in order of heavy-atom count, smallest number first:
SMILES	HNF4A DNA FP
COc1ccc(C(=O)CSC(=S)N2CCCCC2)cc1	4.6
C=C(C)C(=O)Oc1ccc(N=Nc2ccc(C)cc2)ccc1=O	-55
COc1cccc(C(=O)N2CCN(Cc3nc(-c4ccoc4)oc3C)CC2)c1	2.3
CN1OC[C@@H]2CN3C(=O)N(c4cccc5ccccc45)c4ccccc4[C@@H]3C[C@@H]21	5.1
CCCCC[C@H](C)N1C[C@@H](COCc2ccccc2)Oc2cc(N3CC[C@@H](N(C)C)C3)ccc2S1(=O)=O	2.2
CC(C)C[C@H]1CN([C@@H](CC(C)C)CN2CCC[C@H]2CN2C(=O)C(=O)NC[C@@H]2Cc2ccc(O)cc2)C(=O)C(=O)N1CC1CCCCC1	1.8

The listing continues:
SMILES	HNF4A DNA FP
CCOC(=O)[C@]12CCCC=C1N(CCC1=CCCCC1)C(=O)[C@H](CC(=O)NCC13CC4CC(CC(C4)C1)C3)C2	-0.4
Oc1ccc(C[C@H]2CNC(=S)N2C[C@H]2CCCN2C[C@H](Cc2ccccc2)N2C[C@H](Cc3ccccc3)N(CC3CCCCC3)C2=S)cc1	-4.9
Nc1[nH]c(C(=O)c2ccccc2)c(-c2ccc(Br)cc2)c1C(=O)NCCc1c[nH]c2ccccc12	0.4
CCC(=O)N1CCCC(C)(C(=O)Nc2ccc(OC)c(F)c2)C1 (stereo unspecified)	-2.2
O=C(NCc1ccco1)c1cccc(-c2cncc3nccn23)c1	1.1
CCCC1NC(=O)c2cccnc2-n2c1nc1ccc(OC)cc1c2=O (stereo unspecified)	-1.2
CCc1nc2ccc(C(=O)Nc3cc(-c4ccccc4)ccc3OC)cn2c1N(C=O)CCC(C)C	0.8
Nc1nc2c(ncn2[C@@H]2O[C@H](CNCc3ccccc3)[C@@H](O)[C@H]2O)c(=O)[nH]1	7.3
CCC(=O)N1CCC1(C)C(=O)NCc1ccccc1SC (stereo unspecified)	1.4
CC(=O)Nc1ccc(NC(=O)C2(C)Cc3c(-c4ccc(NC(C)=O)cc4)ccnc3O2)cc1 (stereo unspecified)	2.0
O=C(NCc1ccncc1)[C@@H]1CCCN1C(=O)[C@H]1CCCN1C(=O)c1c(F)cccc1F	6.2
O=C1NC[C@H](CCCCN2C[C@H](Cc3ccccc3)N(CCC3CCCCC3)C(=O)C2=O)N(CCc2ccc(O)cc2)C1=O	1.1
CC1CCCN1c1ccnc2cc(Cl)ccc12 (stereo unspecified)	3.9
COc1ccc(C(C)(O)c2nc(-c3cccc(C(C)C)c3)cs2)cc1 (stereo unspecified)	-1.3
CCOC(=O)CC1(C)Oc2cc(Cl)ccc2N1S(=O)(=O)c1ccc(C)cc1 (stereo unspecified)	-2.2
Cc1ccc(S(=O)(=O)NC(=O)C2(C)CCN2C(=O)Cc2ccc(C(C)(C)C)cc2)cc1 (stereo unspecified)	-1.4
CCOCCC(=O)Nc1ccc2c(c1)c(=O)n(C)n2Cc1cccc(C(F)(F)F)c1	-4.3
Cc1ccc(S(=O)(=O)N2C[C@H]3[C@H]4C(=O)N(c5ccccc5)C(=O)[C@H]4CC(=O)[C@H]3[C@@H]2c2ccccc2)cc1	-0.8
Cc1ccc(C)c(NC(=S)N2CCC(C(=O)c3ccc(F)cc3)CC2)c1	1.6
COC(=O)N1CCCCC1c1cc(C(=O)N2CCOCC2)no1 (stereo unspecified)	-1.5
COc1cc(CNC(=O)C2CC(O)CN2C(=O)Nc2ccccc2)cc(OC)c1OC (stereo unspecified)	-0.6
CC(C)C(C(=O)NCc1ccccc1)N1CCN(c2ccccc2F)CC1 (stereo unspecified)	-0.5
O=C(NCc1ccccc1Cl)[C@H]1CCCN1C(=O)[C@H]1CCCN1C(=O)c1cccs1	0.2
O=[N+]([O-])c1ccc(C=Nc2ccccc2)cc1	2.2
CC(C)c1cccc(-c2csc(C(O)c3ccc(F)c(F)c3)n2)c1 (stereo unspecified)	-1.8
O=C1CCCCC(=O)[C@H](O)C[C@H](COCc2ccccc2)O1	0.7
CCCN(C)C[C@@H]1OCc2cnnn2CCCC(=O)N([C@H](C)CO)C[C@H]1C	-0.5
COc1ccc(CN2C(=O)c3ccccc3C2c2nnnn2Cc2ccccc2)cc1 (stereo unspecified)	-4.0
CC(C)Oc1cc(F)ccc1-c1cc(C(=O)NCC2CCCCC2)[nH]n1	-2.8
CC1(C(=O)NCc2ccccc2)CN(S(C)(=O)=O)CC(=O)N1CCCN1CCOCC1 (stereo unspecified)	2.5
CC(C)NC(=O)C1(C)CCCN1Cc1ccccc1 (stereo unspecified)	0.6
COc1cccc(C(O)c2ncc(-c3ccc(C(F)(F)F)cc3)[nH]2)c1 (stereo unspecified)	-0.2
CSc1ccccc1OCc1cc(C(=O)NCC(C)Oc2cccnc2)no1 (stereo unspecified)	2.3
CC(C)COC(=O)N1CCCC(c2cc(C(=O)Nc3ccccc3Cl)no2)C1 (stereo unspecified)	3.5
OCc1ccccc1-c1ccc2nccn2c1	4.1
CN(Cc1ccccc1)C(=O)c1ccc(Nc2nc(CN)cs2)nc1	0.8
Cc1ccc(-c2cc3nc(-c4ccccc4)cc(NCCCO)n3n2)cc1	23
O=C(/C=C1\OCc2ccccc21)c1ccccc1	1.3
CC(C)C[C@@H](COCc1cccc(Cl)c1)N1CCN(C(=O)c2ccc(C(F)(F)F)cc2)CCC1=O	-2.4
Cc1nc2ccccc2n1C(C)c1nc2ccccc2n1CC(=O)c1ccsc1 (stereo unspecified)	3.8
COc1ccc(-c2csc(C(O)c3ccc(F)c(F)c3)n2)cc1 (stereo unspecified)	0.0
COC(=O)[C@@]12C[C@@H](CC(=O)NCCCCc3ccccc3)C(=O)N(Cc3ccccc3)C1=CCC(C)(C)C2	0.6
CCc1nc2ccc(C(=O)NCCOc3ccc(OC)cc3)cn2c1N(C)Cc1ccc(N(C)C)cc1	0.9
Cn1ccc2c(-c3cncc4ccccc34)cc3c(c21)C1CCC3C1 (stereo unspecified)	-0.6
CCc1ccc2c(c1)NC(=O)C2(C)Cc1ccc(C(F)(F)F)nc1 (stereo unspecified)	1.2
CCc1ccc([C@@H]2CC(=O)[C@@H]3CN(S(=O)(=O)c4ccc(Cl)cc4)[C@H](c4ccc(C)cc4)C[C@@H]3N2S(=O)(=O)c2ccc(C)cc2)cc1	2.2
CC(C)N1CCC(C)(C(=O)Nc2ccccc2Oc2ccccc2)C1 (stereo unspecified)	1.8
COc1ccc2[nH]c3c(c(=O)c2c1)CCCC3	6.3
CCN(C)C1CN(Cc2cn(Cc3ccc(F)cc3)nn2)S(=O)(=O)C1 (stereo unspecified)	0.0
C[C@@H]1CCCCO[C@H](CN(C)S(=O)(=O)c2cn(C)cn2)[C@@H](C)CN([C@H](C)CO)C(=O)c2cc(NC(=O)c3ccncc3)ccc2O1	0.3
OC(c1cc(Cl)cc(Cl)c1)c1ncc(-c2cccc(F)c2)[nH]1 (stereo unspecified)	1.4
CC(C)NC(=O)C1(C)CCN1C(=O)C(c1ccccc1)c1ccccc1 (stereo unspecified)	1.8
COc1ccccc1CNc1nc(NCc2ccc(C)cc2C)c2sccc2n1	0.1
CC1(C(=O)NCCc2c[nH]c3ccccc23)CCN1CC1CCCCC1 (stereo unspecified)	3.2
CCc1nc2ccc(C(=O)NCCCN3CCCC3=O)cn2c1N(CC)C(C)=O	-1.2
CCc1nc2ccc(C(=O)NCCCn3ccnc3)cn2c1N(C)C(=O)COc1ccccc1	2.5
CCNC(=O)c1cc2c(c(-c3cccc(-c4ccccc4F)c3)n1)[C@@H](CCO)N(C(=O)CC1CC1)C2	2.9
Nc1nc(=O)n(C2OC(CO)C(O)C2O)cc1F (stereo unspecified)	5.4
CC(=NNS(=O)(=O)c1ccc(C)cc1)c1ccccc1	2.4
COc1ccc(-c2ccc(C(=O)NCc3ccc(N(C)C)cc3)c3occc23)c(C)c1	9.9

(next part)
SMILES	HNF4A DNA FP
CCOC(=O)[C@]12CCC=C1N(Cc1ccccc1)C(=O)[C@H](CC(=O)NCCC(C)C)C2	4.9
CC1(C(=O)NS(=O)(=O)c2cccc(F)c2)CCN1C(=O)C1CCCCC1 (stereo unspecified)	1.8
COc1cc(NC(=O)[C@@H]2O[C@H](CO)[C@@H](O)[C@H]2O)cc(OC)c1OC	-1.9
Cc1cc(C)cc(CC(=O)N2CCC2(C)C(=O)NS(=O)(=O)c2ccc(C#N)cc2)c1 (stereo unspecified)	-1.9
CC(C)(C)n1nnnc1C(c1cc2ccccc2o1)N1CCOCC1 (stereo unspecified)	-4.0
C[C@H](CO)N1C[C@H](C)[C@H](CN(C)C(=O)c2ccccn2)Oc2cc(C#Cc3ccc(F)cc3)ccc2S1(=O)=O	4.5
COc1cccc(CN2CCC2(C)C(=O)Nc2cccc3cccnc23)c1OC (stereo unspecified)	3.5
CCc1nc2ccc(C(=O)Nc3cccc(OCC(=O)N(C)C)c3)cn2c1N(C)Cc1cc2ccccc2s1	3.2
CCCNC(=O)C1(C)CCCN(Cc2ccc3c(c2)OCO3)C1 (stereo unspecified)	1.7
O=C(c1cc(COc2cccc(C(F)(F)F)c2)on1)N1CCCC1	0.1
COc1cccc(C(C)(O)c2nc(-c3cnn(C)c3)cs2)c1 (stereo unspecified)	0.8
Cc1ccc(F)c(S(=O)(=O)NC(=O)C2(C)CCN2C(=O)C2(c3ccc(Cl)cc3)CC2)c1 (stereo unspecified)	-0.4
CC1(C(=O)Nc2ccc(Cl)c(Cl)c2)CCN1Cc1cc2ccccc2o1 (stereo unspecified)	-0.8
OC(c1ccco1)c1nc(-c2ccc(F)c(Cl)c2)cs1 (stereo unspecified)	4.3
Cc1cc(C(=O)N2CCCC(C)(C(=O)NS(=O)(=O)C3CC3)C2)nn1C(C)(C)C (stereo unspecified)	-0.7
O=C(NCc1ccccc1)c1cnc(Cc2c[nH]c3ccccc23)c(I)c1	1.9
Cc1ccc(NC(=O)C2(C)CCN2Cc2ccccc2OC(F)F)cc1 (stereo unspecified)	0.3
CC(C)n1nnnc1C1c2ccccc2C(=O)N1Cc1ccco1 (stereo unspecified)	1.7
Cn1ccc2c(-c3ccccc3F)cc3c(c21)C1CCC3C1 (stereo unspecified)	5.8
CCNC(=O)C1(C)CCCN(C(=O)c2ccc(C(F)(F)F)nc2C)C1 (stereo unspecified)	6.0
CC(=O)c1ccc(-c2cnc3c(NC=O)cc(-c4ccc(C(=O)N5CCOCC5)cc4)cn23)cc1	4.7
CSc1ccc(OC2(C)CCN(Cc3ccc(OC(C)C)cc3)C2)cc1 (stereo unspecified)	3.9
C[C@@H](NC(=O)[C@@H]1CCCN1C(=O)[C@@H]1CCCN1C(=O)c1ccccc1)c1ccccc1	3.3
O=C(/C=C/c1ccc2c(c1)OCO2)NCCS(=O)(=O)N1CCN(c2ccccc2)CC1	-0.1
N=c1ncn(C2OC(CO)C(O)C2O)c2nc(Br)[nH]c12 (stereo unspecified)	5.1
CCc1nc2ccc(C(=O)N3CCN(C(=O)c4ccco4)CC3)cn2c1N(C=O)Cc1ccc(OC)cc1	2.0
N#Cc1cccc(NC(=O)c2cc(C3CCCCN3C(=O)c3ccccc3)on2)c1 (stereo unspecified)	-2.4

Reformatted: entries from further up
mol,HNF4A DNA FP
N#Cc1cccc(NC(=O)c2cc(C3CCCCN3C(=O)c3ccccc3)on2)c1 (stereo unspecified),-2.4
N=c1ncn(C2OC(CO)C(O)C2O)c2nc(Br)[nH]c12 (stereo unspecified),5.1
CCc1nc2ccc(C(=O)N3CCN(C(=O)c4ccco4)CC3)cn2c1N(C=O)Cc1ccc(OC)cc1,2.0
